Screening data deposited in PubChem by National Center for Advancing Translational Sciences (NCATS).
Cruzain noTriton = cruzain (T. cruzi) inhibition without detergent. P25779. purified cruzain, Z-FR-AMC fluorescence, no detergent. Potency, µM, inactives show max response, negative = inhibition, usual class: inhibitors. actives 2.3% (n = 200,000). AID 1476; active means well fitted curve in the direction sought with a large enough effect; inconclusive means small, poorly fitted or top-dose-only effect, or another doubt; inactive means no such curve, though single readings can be large; an effect the other way counts as inactive or inconclusive;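 further: plate controls were enzyme without inhibitor for no effect and buffer without enzyme for full effect; nearly all actives have a fitted effect of over 40% in size; top concentration of the series not given in the record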
Target sequence (P25779 123-467 limits assumed): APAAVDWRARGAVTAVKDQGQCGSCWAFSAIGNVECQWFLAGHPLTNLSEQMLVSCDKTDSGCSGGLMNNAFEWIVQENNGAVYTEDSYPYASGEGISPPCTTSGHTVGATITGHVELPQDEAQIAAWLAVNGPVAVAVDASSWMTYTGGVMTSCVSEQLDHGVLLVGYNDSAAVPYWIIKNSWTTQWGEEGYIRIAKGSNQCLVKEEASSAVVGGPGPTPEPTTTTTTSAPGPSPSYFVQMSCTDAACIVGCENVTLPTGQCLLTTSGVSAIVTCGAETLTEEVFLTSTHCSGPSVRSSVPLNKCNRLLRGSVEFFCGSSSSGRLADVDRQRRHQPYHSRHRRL
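Detergent-free condition (0.00005% Triton X-100) in acetate buffer pH 5.5 with DTT. 1.5 nM enzyme and compound were pre-mixed 15 min, then 2 uM Z-FR-AMC substrate added; reaction progress from fluorescence change between first and third reads (60 s).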
Lassa entry inh = inhibitors of Lassa virus binding or cell entry | Lassa virus pseudotype entry inhibition, cell reporter; control for the full effect not named in the record | Potency, µM (highest dose often 37.9 µM), inactives show at the highest dose activity change, negative = inhibition, most hits filed as inhibitors | actives 1.2% (n = 300,000) | AID 540256; active means well fitted inhibition curve with a large enough effect; inconclusive means small, poorly fitted or top-dose-only effect, or effect the other way; inactive means flat fitted curve, though single readings scatter; tested in HEK293 cells; further: on the % scale 0 is the no-effect control and ±100 the full control effect; nearly all actives have a fitted effect of over 50% in size; luciferase read-out
2A StopGo = FMDV 2A StopGo reporter, luciferase signal; actives 1.2% (n = 410,000); human cells with a luciferase reporter of 2A StopGo recoding; control for the full effect not named in the record; AID 1159524; Potency, µM (series often up to 57.9 µM), for inactives: at the highest dose signal change, negative = less light; active = well fitted falling curve with a large enough effect; inconclusive = small, poorly fitted or top-dose-only effect; inactive = no such curve, though single readings can be large or run the other way; tested in HEK293T cells; further: on the % scale 0 is the no-effect control and ±100 the full control effect; nearly all actives have a fitted effect of over 45% in size; luciferase light after 4 h
MARV entry inh = inhibitors of Marburg virus binding or cell entry; Marburg virus pseudotyped entry inhibition, cell reporter; control for the full effect not named in the record; about a third of the inactives were read at about 46 µM; Potency, µM (top dose mostly 37.8 µM), for the others: at the top dose activity change, negative = inhibition, actives largely listed as inhibitors; actives 1.8% (n = 300,000); AID 540276; active = well fitted inhibition curve with a large enough effect; inconclusive = small, poorly fitted or top-dose-only effect, or effect the other way; inactive = flat fitted curve, though single readings scatter; tested in HEK293 cells; about a fifth of its hits are not listed in these tables; further: on the % scale 0 is the no-effect control and ±100 the full control effect; luciferase read-out
Cruzain inh Det = inhibitors of Trypanosoma cruzi cruzain with detergent. AID 1478. actives 0.43% (n = 200,000). Potency, µM, for the others: max response, negative = inhibition, usual class: inhibitors. purified cruzain, Z-FR-AMC fluorescence, 0.01% Triton; active means well fitted curve in the direction sought with a large enough effect; inconclusive means small, poorly fitted or top-dose-only effect, or another doubt; inactive means no such curve, though single readings can be large; an effect the other way counts as inactive or inconclusive;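 further: plate controls were neutral wells for no effect and buffer without enzyme for full effect; nearly all actives have a fitted effect of over 40% in size; top concentration of the series not given in the record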
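Purified cruzain (1.5 nM final) was preincubated with compounds for 15 min at room temperature in 100 mM sodium acetate pH 5.5, 5 mM DTT, 0.01% Triton X-100. Reaction started with 2 uM Z-FR-AMC; AMC fluorescence change over 60 s gave activity.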
NS1 inh = inhibitors of influenza NS1 protein function | S. cerevisiae slowed by influenza A NS1, growth recovery by OD600 | Potency, µM (top dose mostly 46.1 µM), for the others: at the top dose activity, positive = more growth | actives 0.4% (n = 270,000) | AID 2326; further: actives are rising curves; nearly all actives have a fitted effect of over 50% in size
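In this qHTS, NS1 from influenza A is expressed in budding yeast, where it slows growth. Cells are switched from glucose to 2% galactose medium (pH 6.0, -URA), treated with compound, and growth recovery is read at OD600.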
RE007 growth inh = less growth of the S. pombe RE007 Vpr strain; S. pombe RE007 Vpr strain, BacTiter-Glo ATP luminescence, 24 h; control for the full effect not named in the record; Potency, µM (titrated, usually from 92.2 µM), inactives show top-dose activity change, negative = less growth; actives 0.21% (n = 360,000); active = well fitted falling curve with a large enough effect; inconclusive = small, poorly fitted or top-dose-only effect; inactive = no such curve, though single readings can be large or run the other way;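 further: on the % scale 0 is the no-effect control and ±100 the full control effect; nearly all actives have a fitted effect of over 50% in size; the assay follows cell death caused by Vpr and the record does not say whether a fall means rescue or toxicity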
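Fission yeast RE007 carrying one integrated HIV-1 vpr copy, seeded at OD 0.01 in PMG+AL medium with 23 nL pinned compound. Grown 24 h at 30 degrees; viability read by BacTiter-Glo luminescence after 5 min.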
SARS PLP yeast = blocks SARS-CoV papain-like protease in a yeast assay. S. cerevisiae expressing SARS-CoV PLpro, growth rescue; control for the full effect not named in the record. Potency, µM (highest dose often 32.9 µM), for inactives: top-dose activity, positive = growth rescue. actives 0.19% (n = 330,000); further: 0% is about no effect; nearly all actives have a fitted effect of over 55% in size; growth read by luminescence after 48 h
* marks the source's active call; other numbers are inactive results; ? = inconclusive; . = not tested or not shown; & = joins results of further samples; [ ] = another dose, or the depositor's remark. Unless noted, the call rests on the fitted dose curve; in most records, active means well fitted rising curve with a large enough effect; inconclusive means small, poorly fitted or top-dose-only effect; inactive means no such curve, though single readings can be large or run the other way. Potency means the concentration at half of the fitted maximal effect.

Value order – Cruzain noTriton	Lassa entry inh	2A StopGo	MARV entry inh	Cruzain inh Det	NS1 inh	RE007 growth inh	SARS PLP yeast
(1) C=CCN(C(=O)C1CSC2(C)CCC(=O)N12)c1nc(-c2ccccc2)cs1 (stereo unspecified)
→ .	-14%	-22%	-13%	.	.	-17%	-19%
(2) Cc1c(C)c2ccc(OCC(=O)Nc3ccccc3C(N)=O)cc2oc1=O
→ .	.	11%	.	.	-10%	1%	11%
(3) O=C(OC(C(=O)Nc1ccc([N+](=O)[O-])cc1Br)c1ccccc1)c1ccccc1 (stereo unspecified)
→ .	-2%	19%	3.5µM*	.	23%	8%	-1%
(4) CCc1ccc(/C=c2\s/c(=C\C(=O)C(C)(C)C)[nH]c2=O)cc1
→ -24%	?	-22%	3%[46.1 µM]	-8.1%	-93%	-2%	-28%
(5) O=C(Nc1ccc(Br)cc1)C1CCN(S(=O)(=O)c2cccc3nsnc23)CC1
→ -2%	?	-6%	8%[46.1 µM]	-2.0%	.	.	.
(6) COc1ccc(OC)c(S(=O)(=O)N2CCN(c3c(C)cccc3C)CC2)c1
→ ?	.	-8%	.	-6.5%	-44%	0%	-8%
(7) Cc1ccc(C(=O)Nn2cnnc2)cc1
→ .	.	-16%	.	.	2%	18%	1%
(8) CCOc1ccc(CCNC(=O)c2cc3c(=O)n(C)c4ccccc4c3s2)cc1OCC
→ -6%	26%[46.1 µM]	-11%	13%[46.1 µM]	-1.3%	.	.	.
(9) CCOc1ccc(NC(=O)c2c(Nc3ccccc3C)sc(C(=O)c3ccccc3)c2N)cc1
→ -19%	?	?	.	-5.1%	.	.	.
(10) CCc1cccc(CN2CCC(CNC(=O)Nc3ccc(Cl)cc3)CC2)c1
→ .	.	-10%	.	.	4%	-18%	0%
(11) CCOCC(=O)Nc1cccc(Br)c1
→ -11%	11%	1%	6%	3.2%	-3%	0%	0%
(12) COc1ccccc1NC(=O)Nc1cc(C(C)C)ccc1C
→ .	?	7%	?	.	-4%	2%	1%
(13) CN1C(=O)CC(N2CCN(CCN=CC3=C(O)CC(C)(C)CC3=O)CC2)C1=O (stereo unspecified)
→ -10%	?	-25%	18%	-1.6%	-45%	-17%	1%
(14) COc1cc(OC)cc(C(=O)Nc2ccc(C(=O)Nc3ccccc3OC)cc2)c1
→ .	-21%[46.1 µM]	-17%	?	.	.	-9%	1%
(15) COCCCNC(=O)c1cc(C)nc2ccc(F)cc12
→ 20%	-24%[14.3 µM]	-8%	-4%	4.6%	2%	-10%	10%
(16) CC1CCC(NC(=O)CN(C)CC(=O)Nc2ccc(F)cc2)CC1 (stereo unspecified)
→ .	14%	6%	6%	.	.	-8%	0%
(17) COc1ccc(C(=O)OC(C)CN2CCN(C)CC2)cc1 (stereo unspecified)
→ .	14%	29%	?	.	6%	1%	0%
(18) CC(=O)OC1c2ccccc2C(=O)N1Cc1ccccc1Cl (stereo unspecified)
→ 12%	.	6%	.	1.1%	3%	2%	19%
(19) CC(C)c1ccc(NC(=O)CSc2n[nH]c(=O)n2Cc2ccco2)cc1
→ .	.	?	.	.	-7%	-6%	1%
(20) Cc1c(C(=O)NCc2ccc(OC(C)C)cc2)sc2ncnc(N(C)C3CCCCC3)c12
→ 9%	-13%[46.1 µM]	-25%	.	-4.2%	.	.	.
(21) CC(=O)c1cn(-c2ccc([N+](=O)[O-])cc2)c(=O)n(C)c1=O
→ .	12%	4%	6%	.	.	-12%	.
(22) CCCn1c2ccccc2c2cnn(CC(=O)N3CCCC(C(=O)OCC)C3)c(=O)c21 (stereo unspecified)
→ -1%	-16%[46.1 µM]	-23%	.	0.3%	.	.	.
(23) COCC1CCCN(Cc2nc(C(c3ccccc3)c3ccccc3)no2)C1 (stereo unspecified)
→ .	-26%	-25%	1%[46.1 µM]	.	-10%	-8%	-3%
(24) CCNS(=O)(=O)c1ccc(NC(=O)c2cccnc2)cc1
→ 11%	-11%	4%	-5%	3.7%	2%	16%	1%
(25) O=S(=O)(c1cccc(S(=O)(=O)N2CCC(n3nnc4ccccc43)CC2)c1)N1CCCCC1
→ ?	2%	-18%	0%&0%	-0.3%	-1%	-7%	-5%
(26) CC(=O)NCC(=O)NC(Cc1ccccc1)C(N)=O (stereo unspecified)
→ 1%	-5%	-10%	-10%	1.0%	3%	9%	17%
(27) Oc1ccccc1C1=NN(c2ccccc2)C(c2ccc(F)cc2)C1 (stereo unspecified)
→ .	-23%[46.1 µM]	-30%	-10%[46.1 µM]	.	7%	0%	-4%
(28) Nc1nc(COC(=O)c2ccc3c(c2)OCCO3)nc(Nc2ccccc2)n1
→ .	2%	?	-9%	.	.	2%	-1%
(29) COc1ccccc1C(=O)Nc1ccc2c(c1)nc(CCNC(C)=O)n2C
→ -10%	21%	43%[activator]	19%	0.6%	7%	1%	-1%
(30) CCC(C)C1NC(=O)C(C(C)=O)=C1O (stereo unspecified)
→ .	.	0%	.	.	0%	-8%	1%
(31) Cc1oc(-c2ccc(Cl)cc2)cc1C(=O)/C(C#N)=C/Nc1cccc(OC(F)(F)F)c1
→ .	20%	-17%	0%[14.2 µM]	.	4%	-9%	1%
(32) CC(C)Cn1c(N)c(C(=O)COC(=O)c2cc(C(F)(F)F)nc3ccccc23)c(=O)n(C)c1=O
→ 7%&18%	-14%	28µM*	29%	-3.2%&-8.5%	5%	6%	-15%
(33) CC(=O)Nc1ccc(NC(=O)CSc2nc(N)c(NC(=O)c3ccccc3F)c(=O)[nH]2)cc1
→ .	27%	-9%	18%	.	-2%	-20%	-8%
(34) Cc1ccc(C(=O)Nc2nc3ccc(Cl)cc3s2)o1
→ .	2%	45%[activator]	?	.	.	-21%	.
(35) COc1ccc(C2CC(c3cccs3)=NN2S(C)(=O)=O)cc1 (stereo unspecified)
→ .	15%	56%[activator]	9%	.	7%	5%	0%
(36) Cc1ccc(C(=O)NCC(c2ccco2)S(=O)(=O)c2cccs2)cc1C (stereo unspecified)
→ -3%	-12%[46.1 µM]	-2%	.	-3.0%	.	.	.
(37) CCCCCCCCc1nc(SCC(C)=O)n[nH]1
→ .	10%[46.1 µM]	9%	-14%[46.1 µM]	.	-36%	-1%	-4%
(38) Cc1nn(Cc2ccccc2)c(Cl)c1/C=C/C(=O)OCC(=O)N(C)C1CCS(=O)(=O)C1 (stereo unspecified)
→ .	-6%	?	?	.	.	-19%	2%
(39) CCCCCNCc1cccc(Br)c1
→ 5%	23%	.	?	4.6%	-16%	-3%	0%
(40) O=C(Cn1c(=O)n(-c2ccccc2)c(=O)c2c3c(sc21)CCCC3)Nc1cccc(F)c1
→ 1%	4%[46.1 µM]	-19%	11%[46.1 µM]	-0.8%	.	.	.
(41) COc1ccc(C2(C)C(C#N)C(=O)NC(=O)C2C#N)cc1 (stereo unspecified)
→ .	0%[46.1 µM]	-4%	?	.	.	9%	.
(42) CCS(=O)(=O)N1CCN(C2Cc3ccccc3C2)CC1
→ -6%	-5%	8%	17%	-1.6%	3%	-9%	-5%
(43) COc1ccc(C2/C=C\CN(C(=O)CC(C)(C)C)CC(=O)N2Cc2ccc(F)cc2)cc1 (stereo unspecified)
→ .	.	23%	.	.	4%	10%	-3%
(44) COc1ccc(Cl)cc1NC(=O)c1cc(-c2ccccc2O)n[nH]1
→ 10µM*	?	-18%	?	-2.3%	?	-8%	-11%
(45) CCN(C(=O)COC(=O)/C=C/c1ccc(S(=O)(=O)N2CCc3ccccc32)cc1)C1CCS(=O)(=O)C1 (stereo unspecified)
→ .	-16%[46.1 µM]	-26%	?	.	2%	-2%	0%
(46) O=c1cccc2n1CC1CNC[C@H]2C1
→ 7%&0%	.	0%&-2%&-4%	.	0.3%&-1.8%	.	-3%[18.4 µM]	.
(47) Cc1onc(-c2ccccc2Cl)c1C(=O)Nc1ccc(S(=O)(=O)Nc2nccs2)cc1
→ .	8%	14%	-20%[46.1 µM]	.	?	-5%	0%
(48) CCNC(=O)CSc1nnc(C2CC2)n1-c1ccccc1
→ 3%	5%	0%	2%	4.8%	0%	10%	-4%
(49) COC(=O)c1cc(Br)c(=O)n(-c2ccccn2)c1
→ -4%	6%	-22%	?	1.3%	8%	2%	1%
(50) CCOC(=O)c1sc(-c2ccc(Cl)cc2Cl)nc1O
→ .	1%[46.1 µM]	15%	-5%[46.1 µM]	.	-56%	?	-1%
(51) C=CCNC(=O)C1CCCN(S(C)(=O)=O)C1 (stereo unspecified)
→ -4%	12%	.	0%	0.5%	-2%	-7%	3%
(52) CCOc1ccccc1C(=O)N(CCC(=O)OC)c1ccccn1
→ 1%	15%	-17%	30%	7.7%	0%	-3%	3%
(53) COc1ccc(NC(=S)N(CCc2c(C)[nH]c3ccc(C)cc23)Cc2cccs2)cc1
→ ?	?	-7%	?	-0.4%	11µM*	-3%	2%
(54) CCc1ccc(NC(=O)C2CC(=O)Nc3ncnn32)cc1 (stereo unspecified)
→ -8%	12%	-12%	?	0.6%	-5%	0%	3%
(55) C=CCc1c(C)nc(SC)nc1Nc1ccc(C)cc1
→ 4%	?	-20%	?	-6.9%	-130%	-26%	-27%
(56) Nc1nc(-c2ccc3ccccc3c2)cs1
→ .	19%	45%[activator]	?	.	.	?	-6%
(57) O=C(Nc1ccc(S(=O)(=O)Nc2ncccn2)cc1)c1ccc(Br)o1
→ .	.	-12%	.	.	4%	12%	1%

2 entries picked at random from the list so far, as already listed:
Value order – Cruzain noTriton	Lassa entry inh	2A StopGo	MARV entry inh	Cruzain inh Det	NS1 inh	RE007 growth inh	SARS PLP yeast
(48) CCNC(=O)CSc1nnc(C2CC2)n1-c1ccccc1
→ 3%	5%	0%	2%	4.8%	0%	10%	-4%
(52) CCOc1ccccc1C(=O)N(CCC(=O)OC)c1ccccn1
→ 1%	15%	-17%	30%	7.7%	0%	-3%	3%
